Bioassay records as filed in PubChem.
HIV Env fusion: inhibitors of HIV-1 Env-driven cell-cell fusion, primary screen, HeLa-JRFL effector, CEM21 target cells, luciferase; inhibition, % at 12.3 µM; 1.1% of 360,000 active; AID 651610, 2012;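 active means mean replicate inhibition score of at least 50 and every replicate individually at or above 50; inconclusive means only one of the two criteria met; inactive means mean below 50 and not all replicates reaching 50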;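 further: 0% = plate neutral controls and 100% = maraviroc near 300 nM; one replicate is shown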
Yeast UUG start: modulators of yeast start codon fidelity, primary screen, whole organism, S. cerevisiae, single point, plate reader; S. cerevisiae UUG-firefly luciferase reporter, luminescence/redox ratio; activity score, % at 18.7 µM; 0.13% of 350,000 active; AID 602363, 2012;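 active means replicate mean at a twofold rise or more, about +100% in these data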;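 further: firefly luciferase made from a UUG start codon reports start codon fidelity; reporter light over untreated wells divided by growth signal over untreated wells; some hits fall short of that in this replicate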
* hit, by the source's call; ? = inconclusive; & = joins results of further samples; [ ] = dose if it differs, or a comment.

HIV Env fusion | Yeast UUG start | Molecule
-33[16.7 µM] | -2 | C[C@H](CO)N1C[C@H](C)[C@H](CN(C)C(=O)Nc2ccccc2)Oc2c(NC(=O)c3nc4ccccc4s3)cccc2C1=O
11[16.7 µM] | 8 | C[C@@H]1CCCCO[C@H](CN(C)Cc2ccc(C(=O)O)cc2)[C@H](C)CN([C@H](C)CO)C(=O)c2cc(NC(=O)C3CCCCC3)ccc2O1
66*[16.7 µM] | -8 | C[C@H]1CN([C@@H](C)CO)C(=O)c2cccc(NC(=O)c3ccncc3)c2O[C@@H]1CN(C)C(=O)Nc1cccc2ccccc12
-33[16.7 µM] | 15 | Cc1noc(C)c1S(=O)(=O)Nc1ccc2c(c1)C(=O)N([C@H](C)CO)C[C@@H](C)[C@@H](CN(C)S(=O)(=O)c1cccs1)OCCCC[C@H](C)O2
-25[16.7 µM] | -12 | CNC[C@H]1Oc2ccc(NC(=O)Cc3ccccc3)cc2CC(=O)N([C@@H](C)CO)C[C@H]1C
? | -7 | C[C@@H]1CCCCO[C@H](CN(C)Cc2ccc(C(F)(F)F)cc2)[C@@H](C)CN([C@@H](C)CO)C(=O)c2cc(NC(=O)Nc3ccc(C(F)(F)F)cc3)ccc2O1
-28[16.7 µM] | -3 | C[C@@H]1CN([C@H](C)CO)C(=O)c2cc(-c3ccccc3)cnc2O[C@@H]1CN(C)Cc1ccc(C(=O)O)cc1
17[16.7 µM] | -8 | C[C@H](CO)N1C[C@H](C)[C@@H](CN(C)S(=O)(=O)c2cccs2)Oc2ncc(/C=C/c3ccccc3)cc2C1=O
16[16.7 µM] | -2 | COc1ccc(CNC(=O)C[C@H]2CC[C@H](NC(=O)Nc3ccc4c(c3)OCO4)[C@H](CO)O2)cc1
2[16.7 µM] | 8 | COc1ccc(C#Cc2ccc3c(c2)[C@]2(C(=O)N3)[C@H](c3ccccc3OCCO)N3[C@H](c4ccccc4)[C@H](c4ccccc4)OC(=O)[C@H]3[C@@H]2C(=O)N2CCN(c3ncccn3)CC2)cc1
18[16.7 µM] | -5 | CCNC(=O)C[C@@H]1CC[C@@H]2[C@@H](COc3ccc(NC(=O)c4cscn4)cc3C(=O)N2C)O1
10[16.7 µM] | 11 | CCS(=O)(=O)Nc1ccc2c(c1)C(=O)N(C)C[C@H](OC)[C@@H](C)CN(C(=O)COC)[C@H](C)CO2
-29[16.7 µM] | -15 | O=S(=O)(N[C@@H]1CC[C@@H](CCn2cc(C3CC3)nn2)O[C@@H]1CO)c1ccc(Cl)cc1
32[16.7 µM] | -13 | C[C@H]1CCCCO[C@@H](CN(C)C(=O)Nc2ccc(C(F)(F)F)cc2)[C@@H](C)CN([C@@H](C)CO)C(=O)c2cc(NC(=O)Cc3ccccc3)ccc2O1
-1&-42[16.7 µM] | 13&5 | CN1C(=O)c2cc(NC(=O)c3cccc(F)c3)ccc2OC[C@@H]2O[C@H](CC(=O)NC3CCC3)CC[C@H]21
16[16.7 µM] | 10 | CCC(=O)N(C)C[C@H]1Oc2ncc(-c3cccc(OC)c3)cc2C(=O)N([C@@H](C)CO)C[C@H]1C
-16[16.7 µM] | -3 | O=C(C[C@H]1C=C[C@H](NC(=O)CN2CCOCC2)[C@H](CO)O1)NC1CCCCC1
16[16.7 µM] | -6 | C[C@@H]1CCCCO[C@H](CN(C)Cc2ccccc2)[C@@H](C)CN([C@H](C)CO)C(=O)c2cc(NC(=O)CCCN(C)C)ccc2O1
19[16.7 µM] | 21 | Cc1noc(C)c1S(=O)(=O)Nc1ccc2c(c1)CC(=O)N([C@@H](C)CO)C[C@H](C)[C@@H](CN(C)Cc1ccc(C(F)(F)F)cc1)O2
5[16.7 µM] | 3 | C[C@@H]1CN([C@H](C)CO)C(=O)c2cc(-c3ccccc3F)cnc2O[C@@H]1CN(C)Cc1ccccc1
16[16.7 µM] | 14 | COc1ccc(S(=O)(=O)Nc2ccc3c(c2)CC(=O)N([C@@H](C)CO)C[C@@H](C)[C@H](CN(C)S(=O)(=O)c2c(C)noc2C)O3)cc1
-9[16.7 µM] | 24 | C[C@@H]1CN([C@H](C)CO)C(=O)c2cc(NC(=O)Cc3ccccc3)ccc2O[C@@H]1CN(C)Cc1ccncc1
1[16.7 µM] | -16 | COc1ccc(NC(=O)Nc2ccc3c(c2)C(=O)N([C@H](C)CO)C[C@@H](C)[C@@H](CN(C)S(=O)(=O)c2ccc(F)cc2)OCCCC[C@H](C)O3)cc1
2[16.7 µM] | 9 | O=C1O[C@@H](c2ccccc2)[C@@H](c2ccccc2)N2[C@@H](c3ccc(OCCO)cc3)[C@]3(C(=O)Nc4ccc(C#CCCO)cc43)[C@@H](C(=O)N3CCN(c4ncccn4)CC3)[C@H]12

Record cards, as listed above:
Cc1noc(C)c1S(=O)(=O)Nc1ccc2c(c1)C(=O)N([C@H](C)CO)C[C@@H](C)[C@@H](CN(C)S(=O)(=O)c1cccs1)OCCCC[C@H](C)O2 in the list: HIV Env fusion: -33[16.7 µM]; Yeast UUG start: 15
C[C@@H]1CN([C@H](C)CO)C(=O)c2cc(-c3ccccc3F)cnc2O[C@@H]1CN(C)Cc1ccccc1 in the list: HIV Env fusion: 5[16.7 µM]; Yeast UUG start: 3

New compounds follow:
HIV Env fusion | Yeast UUG start | Molecule
-6[16.7 µM] | -12 | COc1cccc(CNC(=O)C[C@@H]2CC[C@@H](NC(=O)C3CC3)[C@H](CO)O2)c1
28[16.7 µM] | 0 | CC(C)NC(=O)N1[C@H](CO)[C@@H](c2ccc(C#CC3CCCC3)cc2)[C@@H]1C#N
-9[16.7 µM] | -9 | COc1cccc(NC(=O)N(C)C[C@@H]2Oc3cc(/C=C/c4ccccc4)ccc3S(=O)(=O)N([C@@H](C)CO)C[C@H]2C)c1
0[16.7 µM] | -10 | C[C@H](CO)N1C[C@H](C)[C@H](CN(C)Cc2ccccn2)Oc2ncc(C#Cc3ccc(F)cc3)cc2C1=O
-11[16.7 µM] | -3 | CO[C@H]1CN(C)C(=O)c2ccc(NC(=O)Nc3cccc(F)c3)cc2OC[C@H](C)N(C)C[C@H]1C
-4[16.7 µM] | 3 | CCC(=O)N(C)C[C@@H]1Oc2cc(-c3cncnc3)ccc2S(=O)(=O)N([C@H](C)CO)C[C@H]1C
-28[16.7 µM] | -3 | C[C@H]1CN([C@@H](C)CO)C(=O)Cc2cc(NS(=O)(=O)c3ccccc3)ccc2O[C@H]1CN(C)S(=O)(=O)c1ccc(Cl)cc1
4[16.7 µM] | -10 | O=C(C[C@@H]1C=C[C@H](NC(=O)CCN2CCCCC2)[C@H](CO)O1)NCc1ccc(Cl)c(Cl)c1
-31[16.7 µM] | 3 | CO[C@@H]1CN(C)C(=O)c2cc(NS(=O)(=O)c3ccc(Oc4ccccc4)cc3)ccc2OC[C@@H](C)NC[C@@H]1C
2[16.7 µM] | -3 | O=C(C[C@@H]1C=C[C@@H](NC(=O)CCN2CCCCC2)[C@H](CO)O1)Nc1ccc(-c2ccccc2)cc1
-14[16.7 µM] | -2 | COc1ccc(S(=O)(=O)N(C)C[C@@H]2Oc3ccc(NS(=O)(=O)c4c(C)noc4C)cc3C(=O)N([C@H](C)CO)C[C@@H]2C)cc1
-10[16.7 µM] | 5 | C[C@@H]1CN([C@@H](C)CO)C(=O)c2cccc(NC(=O)C3CC3)c2O[C@H]1CN(C)S(=O)(=O)c1ccccc1

2 entries drawn at random from the list so far:
HIV Env fusion | Yeast UUG start | Molecule
4[16.7 µM] | -10 | O=C(C[C@@H]1C=C[C@H](NC(=O)CCN2CCCCC2)[C@H](CO)O1)NCc1ccc(Cl)c(Cl)c1
-10[16.7 µM] | 5 | C[C@@H]1CN([C@@H](C)CO)C(=O)c2cccc(NC(=O)C3CC3)c2O[C@H]1CN(C)S(=O)(=O)c1ccccc1

More entries:
HIV Env fusion | Yeast UUG start | Molecule
-32[16.7 µM] | 7 | Cc1ccc(S(=O)(=O)Nc2ccc3c(c2)CC(=O)N([C@@H](C)CO)C[C@H](C)[C@H](CN(C)Cc2ccc(Cl)c(Cl)c2)O3)cc1
0[16.7 µM] | -5 | C[C@H]1CN([C@@H](C)CO)C(=O)c2cccc(NC(=O)Nc3ccccc3)c2O[C@@H]1CN(C)CC1CCCCC1
23[16.7 µM] | 7 | C[C@@H]1CN([C@@H](C)CO)C(=O)c2cc(NS(=O)(=O)c3ccc(Cl)cc3)ccc2O[C@@H](C)CCCCO[C@@H]1CN(C)C(=O)Nc1ccc2c(c1)OCO2
14[16.7 µM] | 2 | C[C@@H]1CN([C@@H](C)CO)C(=O)c2cccc(NC(=O)Nc3ccc(F)cc3)c2O[C@H]1CN(C)C(=O)Nc1ccc2c(c1)OCO2
18[16.7 µM] | 8 | C[C@H]1CCCCO[C@@H](CN(C)C(=O)Cc2ccccc2)[C@@H](C)CN([C@@H](C)CO)C(=O)c2cc(NC(=O)CCC(F)(F)F)ccc2O1
-2[16.7 µM] | -17 | COc1ccc(-c2ccc([C@@H]3[C@@H](C#N)N(C(=O)C4CCCC4)[C@H]3CO)cc2)cc1
-5[16.7 µM] | 35 | C[C@H]1CN([C@@H](C)CO)C(=O)Cc2cc(NS(=O)(=O)c3ccc(F)cc3)ccc2O[C@@H]1CN(C)S(=O)(=O)c1ccc(F)cc1
-7[16.7 µM] | -2 | Cc1noc(C)c1NC(=O)N(C)C[C@H]1Oc2ncc(C#CC3CC3)cc2C(=O)N([C@H](C)CO)C[C@@H]1C
-21[16.7 µM] | 0 | COc1cccc(-c2ccc3c(c2)O[C@H](CN(C)Cc2cncnc2)[C@H](C)CN([C@@H](C)CO)S3(=O)=O)c1
1[16.7 µM] | 2 | CCCC#Cc1cnc2c(c1)C(=O)N([C@@H](C)CO)C[C@H](C)[C@@H](CN(C)S(=O)(=O)c1ccccc1)O2
15[16.7 µM] | -2 | COc1ccc(NC(=O)Nc2ccc3c(c2)[C@H]2C[C@H](CC(=O)NCC4CC4)O[C@H](CO)[C@H]2O3)cc1
-11[16.7 µM] | -24 | CCCNC(=O)N[C@H]1C=C[C@H](CC(=O)N2CCN(C)CC2)O[C@H]1CO
2[16.7 µM] | 15 | C[C@@H]1CN([C@H](C)CO)C(=O)Cc2cc(NS(=O)(=O)c3cccs3)ccc2O[C@@H]1CN(C)C(=O)NC1CCCCC1
11[16.7 µM] | 4 | COc1ccc(S(=O)(=O)Nc2ccc3c(c2)C(=O)N([C@@H](C)CO)C[C@H](C)[C@@H](CN(C)C(=O)NC2CCCCC2)OCCCC[C@H](C)O3)cc1
8[16.7 µM] | -4 | Cc1ccc(S(=O)(=O)Nc2ccc3c(c2)C(=O)N([C@@H](C)CO)C[C@H](C)[C@H](CN(C)S(=O)(=O)c2c(C)noc2C)O3)cc1
7[16.7 µM] | 0 | C[C@H](CO)N1C[C@H](C)[C@H](CN(C)Cc2ccc(C(F)(F)F)cc2)Oc2ccc(N(C)C)cc2C1=O
-6[16.7 µM] | -9 | C[C@@H]1CN([C@H](C)CO)S(=O)(=O)c2ccc(Br)cc2O[C@@H]1CN(C)C(=O)c1cnccn1
-2[16.7 µM] | 0 | O=C(C[C@H]1C=C[C@@H](NC(=O)NC2CCCCC2)[C@@H](CO)O1)NCc1ccccc1
-10[16.7 µM] | -1 | COc1ccccc1NC(=O)N1C[C@H](O)COC[C@@H]2O[C@@H](CC(=O)NCCc3ccncc3)CC[C@H]21
0[16.7 µM] | -9 | C[C@@H]1CN([C@H](C)CO)S(=O)(=O)c2ccc(C#Cc3ccc(F)cc3)cc2O[C@@H]1CN(C)C(=O)NC1CCCC1
-13[16.7 µM] | 13 | C[C@H]1CN([C@@H](C)CO)C(=O)c2cccc(NC(=O)c3ccc(-c4nccs4)cc3)c2O[C@H]1CN(C)Cc1ccc(C(=O)Nc2ccccc2N)cc1
3[16.7 µM] | -18 | Cc1nn(C)cc1NC(=O)C[C@@H]1CC[C@H]2[C@H](COc3ccc(NC(=O)C(C)C)cc3C(=O)N2C)O1
-2[16.7 µM] | 9 | C[C@H]1CCCCO[C@H](CN(C)Cc2ccc(C(=O)O)cc2)[C@@H](C)CN([C@@H](C)CO)C(=O)c2cc(NC(=O)C3CCCCC3)ccc2O1
-9[16.7 µM] | -17 | C[C@@H]1CN([C@@H](C)CO)S(=O)(=O)c2ccc(-c3cccnc3)cc2O[C@@H]1CN(C)Cc1cccnc1

Entries listed above that bear a hit mark in HIV Env fusion:
HIV Env fusion | Yeast UUG start | Molecule
66*[16.7 µM] | -8 | C[C@H]1CN([C@@H](C)CO)C(=O)c2cccc(NC(=O)c3ccncc3)c2O[C@@H]1CN(C)C(=O)Nc1cccc2ccccc12

Next compounds follow:
HIV Env fusion | Yeast UUG start | Molecule
6[16.7 µM] | 0 | C[C@@H]1CN([C@H](C)CO)C(=O)Cc2cc(NC(=O)NC3CCCCC3)ccc2O[C@@H]1CN(C)C(=O)Nc1ccc(C(F)(F)F)cc1
21[16.7 µM] | 31 | C[C@@H]1CN([C@@H](C)CO)S(=O)(=O)c2ccc(/C=C/c3ccccc3)cc2O[C@H]1CN(C)C(=O)Nc1cc(F)ccc1F
-14[16.7 µM] | 5 | COc1ccc(NC(=O)N(C)C[C@@H]2Oc3ncc(C#CCN(C)C)cc3C(=O)N([C@H](C)CO)C[C@H]2C)cc1
-8[16.7 µM] | 15 | CC(C)NC(=O)Nc1cccc2c1O[C@@H](CN(C)C(=O)Nc1ccccc1)[C@@H](C)CN([C@H](C)CO)C2=O
6[16.7 µM] | 1 | CC(C)NC(=O)N(C)C[C@H]1OCCCC[C@H](C)Oc2ccc(NC(=O)Nc3ccc4c(c3)OCO4)cc2C(=O)N([C@H](C)CO)C[C@@H]1C
-40[16.7 µM] | 9 | C/C=C/c1cnc2c(c1)C(=O)N([C@H](C)CO)C[C@H](C)[C@@H](CN(C)C(=O)Nc1cccc(OC)c1)O2
5[16.7 µM] | 0 | COc1ccc(S(=O)(=O)N(C)C[C@H]2OCCCC[C@H](C)Oc3ccc(NC(=O)CCC(F)(F)F)cc3C(=O)N([C@@H](C)CO)C[C@H]2C)cc1

Not all compounds are listed, so the mix of outcomes need not match the whole.
